T cruzi inh: T. cruzi replication inhibition. T. cruzi beta-gal in NIH3T3, luminescence, 90 h. inhibition, % (no concentration beside the values). AID 1885. 1.4% of 300,000 active;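 active means mean inhibition across valid replicates above about 55%, limit read from the data; inconclusive means mean below that limit but half or more replicates reach it; inactive means mean below it, under half of replicates reach it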;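 further: signal also drops with host cell toxicity which is not excluded here; 0% = plate median of DMSO wells and 100% = zero luminescence signal; higher percent means less beta-gal luminescence so fewer parasites; stock transfer was 50 nL into about 50 µL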
ALR inh: human ALR oxidase inhibition via reduced H2O2; purified ALR, DTT oxidation, H2O2 HRP-luminol luminescence; inhibition, % (concentration not given with the values); 3.8% of 290,000 active; AID 485317;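 active means mean and each replicate at 75% or more; inconclusive means only one of the two met; inactive means neither met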;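 further: stock transfer was 7.5 nL into about 7.5 µL; 0% = neutral wells and 100% = wells with inactivated enzyme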
Target sequence (P55789 whole entry, looked up): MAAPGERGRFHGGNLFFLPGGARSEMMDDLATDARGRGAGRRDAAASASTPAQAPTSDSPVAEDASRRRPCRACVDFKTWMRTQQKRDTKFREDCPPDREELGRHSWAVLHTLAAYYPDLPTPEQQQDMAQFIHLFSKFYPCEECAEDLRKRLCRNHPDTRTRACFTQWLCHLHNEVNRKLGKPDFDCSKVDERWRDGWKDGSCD
Calb FLC: C. albicans growth modulation with fluconazole; growth inhibition, % (no concentration beside the values); 0.57% of 300,000 active; C. albicans CaCi-2 (fluconazole-resistant clinical isolate) + fluconazole, Alamar Blue growth, 48 h; AID 1979;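 active means most replicates above 75%; inconclusive means exactly half above 75%; inactive means most below 75%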;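 further: all wells also contain fluconazole at 8 µg/ml as a sub-toxic cotreatment; 0% = median of DMSO wells and 100% = median of geldanamycin control wells; wells of about 8 µL received 7.5 nL stock; the first replicate is given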
Ecoli rRNA inh: inhibitors of bacterial rRNA selective over humanized ribosomes | E. coli WT GFP vs humanized-ribosome RFP mutants, fluorescence, 24 h; active compounds read low; DMSO median 0, no signal -100 | GFP signal change (wild-type ribosome), % (concentration not given with the values) | 1.6% of 350,000 active | AID 720706;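 active means significant combined selectivity score with lowered wild-type GFP, culture density cut under 30%, mutant RFP and density less affected; inactive means any of these conditions unmet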; further: one replicate is shown; some compounds called inactive have numbers as strong as hits
FGF22 binding: binders of recombinant human FGF22 by thermal shift; 1.5% of 340,000 active; SYPRO orange fluorescence; percent of sucrose octasulfate shift, DMSO zero; calls only at 9.99 µM; Q9HCT0;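 active means melting point raised past a set limit in the mean and every replicate; inconclusive means no clear call; three in four hits are not shown here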
Target sequence (Q9HCT0 whole entry, looked up): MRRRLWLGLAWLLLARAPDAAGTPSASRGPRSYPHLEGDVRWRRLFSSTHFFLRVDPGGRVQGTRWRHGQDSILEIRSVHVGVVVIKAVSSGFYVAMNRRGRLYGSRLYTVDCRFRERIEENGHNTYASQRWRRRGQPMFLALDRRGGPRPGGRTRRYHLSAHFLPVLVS
RanGTP-Imp inh: inhibitors of RanGTP-importin-beta interaction, primary screen, biochemical, FRET, CFP-Ran, YFP-importin-beta, homogeneous; inhibition, % (no concentration beside the values); AID 2216; 1.1% of 300,000 active; cell-free CFP-Ran/YFP-importin-beta FRET ratio;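 active means most replicates above 15%; inconclusive means exactly half above 15%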;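 further: 0% = DMSO wells and 100% = Ran loaded with GDP instead of GTP; wells of about 40 µL received 100 nL stock; the first replicate is given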
Beta apoptosis: beta cell apoptosis inhibition. INS-1E cytokine-induced death, ATP luminescence, 48 h; percent of positive-control rescue, neutral wells zero. protection from apoptosis, % (concentration not given with the values). 0.8% of 300,000 active;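 active means all replicates at 75% or more, or half of them and the mean; inconclusive means half reach 75% but not the mean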;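 further: 0% = cytokine-treated negative control wells and 100% = positive control rescue; higher means more ATP so stronger rescue from cytokine killing; wells of about 40 µL received 100 nL stock; the first replicate is given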
MLL AF4-AF9 inh: blocks AF4 peptide binding to human AF9 | P42568 | AlphaScreen, biotin-AF4 peptide binding to FLAG-AF9 | inhibition, % at 10 µM | 0.47% of 350,000 active;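 active means every replicate reaching a set inhibition limit, whatever the replicate mean, cut at about 25% in these data; inconclusive means mean inhibition reaches that limit but some replicates miss it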;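 further: 0% = plate neutral control median and 100% = total signal loss; the record names both 10 and 1 µM as test concentration; the first replicate is given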
Target sequence (P42568 whole entry, looked up): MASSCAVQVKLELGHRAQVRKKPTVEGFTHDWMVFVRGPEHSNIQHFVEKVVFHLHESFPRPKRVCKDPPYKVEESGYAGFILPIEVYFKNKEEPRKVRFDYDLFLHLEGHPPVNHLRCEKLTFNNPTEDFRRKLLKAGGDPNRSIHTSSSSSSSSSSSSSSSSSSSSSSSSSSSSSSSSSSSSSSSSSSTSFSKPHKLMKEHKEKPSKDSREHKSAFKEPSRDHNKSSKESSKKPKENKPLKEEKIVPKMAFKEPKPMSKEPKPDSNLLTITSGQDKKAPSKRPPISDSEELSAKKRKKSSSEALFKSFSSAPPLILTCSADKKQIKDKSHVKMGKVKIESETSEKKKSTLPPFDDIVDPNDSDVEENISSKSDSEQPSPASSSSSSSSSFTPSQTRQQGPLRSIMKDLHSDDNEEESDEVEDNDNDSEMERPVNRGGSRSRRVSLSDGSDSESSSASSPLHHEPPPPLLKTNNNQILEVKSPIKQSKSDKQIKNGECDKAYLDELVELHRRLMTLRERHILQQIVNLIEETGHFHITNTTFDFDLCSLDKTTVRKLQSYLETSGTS
Ecoli rRNA inh OD600: recorded beside Ecoli rRNA inh, whose call it bears; OD600 change, %; measured here: OD600 growth;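 optical density of the mix in the first replicate; 0 = DMSO median and -100 = no signal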
Ecoli rRNA inh RFP: also measured in Ecoli rRNA inh; calls as there; RFP signal change, %; measured here: RFP humanized mutant strains;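 first replicate; 0 = DMSO median and -100 = no signal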
An asterisk follows results filed as active; i = inactive; ? = inconclusive; . = no result given.

SMILES | T cruzi inh | ALR inh | Calb FLC | Ecoli rRNA inh | Ecoli rRNA inh OD600 | Ecoli rRNA inh RFP | FGF22 binding | RanGTP-Imp inh | Beta apoptosis | MLL AF4-AF9 inh
O=C1CC(C(=O)N2CCC3(CC2)OCCO3)CN1CCc1ccccc1 (configuration not stated) | -17 | 2 | -7 | . | . | . | . | 1.2 | -5 | .
CCC(=O)CC(c1ccccc1)c1c(O)c2ccccc2sc1=O (configuration not stated) | -5 | 3 | 0 | . | . | . | i | 5.2 | 1 | -1.9
Clc1ccc(N2CCN(Cc3ccccc3Cl)CC2)cc1 | -3 | 16 | -9 | -4 | 6 | -1.1 | i | -0.6 | 0 | 5.9
COc1ccc(F)cc1C(=O)C1CCCN(Cc2ccc(O)cc2)C1 (configuration not stated) | 6 | -6 | -7 | 2 | 4 | 4.9 | i | -1.5 | 0 | -0.1
Nc1ccc(CCN2CCN(c3cccc(C(F)(F)F)c3)CC2)cc1 | 15 | 22 | . | -8 | -17 | -0.4 | i | -0.3 | -2 | 8.5
Cc1nn(Cc2ccccc2Cl)c(Cl)c1C(=O)OC(C(=O)NC(N)=O)C(C)C (configuration not stated) | -2 | . | -1 | . | . | . | . | -2.4 | 1 | .
Cc1cc(C=C2C(=O)N(C)C(=S)N(C)C2=O)c(C)n1C1CCCC1 | 16 | 6 | -2 | . | . | . | . | 3.4 | -3 | .
Cc1cc(C(=O)NP(=O)(N2CCOCC2)N2CCOCC2)c(C)n1C1CC1 | -2 | 2 | -3 | 21 | 20 | 5.0 | i | 0.6 | -6 | 0.7
CCN(CC)C(=O)c1ccc(NC(=O)c2cn(-c3ccccc3)nc2-c2ccc(OC)cc2)cc1 | 25 | -5 | -4 | -6 | -1 | 0.0 | i | 0.7 | 4 | 1.5
COc1ccc(C)cc1NC(=O)c1c(C)nn(Cc2ccccc2)c1Cl | 9 | 5 | 6 | 3 | 6 | 1.7 | i | 1.9 | -17 | -1.9
COP(=O)(OC)C(NS(=O)(=O)c1ccccc1)C(Cl)(Cl)Cl (configuration not stated) | -7 | 1 | -15 | 12 | 13 | -0.3 | i | 2.7 | -6 | -1.4
CN1CCN(c2ccc(N)cc2)CC1 | 30 | 99* | ? | . | . | . | . | -4.4 | 7 | .
CCCn1nc2ccccc2c1P(=O)(N1CCOCC1)N1CCOCC1 | -3 | . | -1 | . | . | . | . | 2.4 | -2 | .
Cc1cccc(N2C(=O)NC(=O)/C(=C\c3cnc(-c4ccccc4)nc3)C2=O)c1 | -18 | 14 | 2 | . | . | . | . | -3.3 | -1 | .
COc1ccc(NC(=O)CN2C3CCC2CC(O)(c2cccnc2)C3)cc1OC (configuration not stated) | -15 | -10 | 0 | . | . | . | . | 3.9 | -5 | .
CCn1c(=O)n(CC(=O)N2CCC3(CC2)OCCO3)c(=O)c2ccccc21 | -15 | -3 | -5 | . | . | . | . | 1.6 | -9 | .
CCOP(=S)(NN(Cc1ccccc1)C(=O)c1ccccc1)OCC | 7 | -2 | -8 | -21 | -35 | -24 | i | -1.1 | 1 | -4.0
COc1ccc(Br)cc1CNCCc1cccc(Cl)c1 | 57* | -20 | -15 | -12 | -12 | 5.2 | i | -0.4 | 9 | 4.7
CN1CCN(c2ccc([N+](=O)[O-])c(N3CCCCC3)c2)CC1 | 79* | 52 | -33 | 8 | 6 | 3.5 | i | ? | -5 | 5.2
Oc1cc2c(cc1CN1CCN(c3ccccc3)CC1)CCC2 | -13 | . | 9 | . | . | . | . | 4.1 | -3 | .
O=C(O)CCn1cc(C=C2C(=O)NC(=S)NC2=O)c(-c2cc3ccccc3oc2=O)n1 | -5 | . | -4 | 14 | 11 | -1.9 | i | 3.5 | . | -5.0
O=C(c1cc([N+](=O)[O-])ccc1N1CCNCC1)N1CCOCC1 | -13 | . | 17 | 10 | 5 | 3.8 | i | -4.3 | 0 | -1.9
Cc1ccc(C)c(OCc2cc(C(=O)N3C[C@H]4C[C@@H](C3)c3cccc(=O)n3C4)no2)c1 | -6 | 1 | -4 | -7 | -5 | 2.1 | i | 1.0 | -5 | 1.1
CNS(=O)(=O)c1ccc(N=Cc2c(O)n(-c3ccccc3)c(=O)[nH]c2=O)cc1 | -3 | -2 | -3 | 20 | 20 | 1.8 | i | 1.0 | -2 | -1.6
COc1ccc(CN2CCCC(C(=O)c3cccc(Cl)c3)C2)cc1 (configuration not stated) | 41 | 0 | 7 | -13 | -13 | 1.8 | i | -2.3 | 0 | -3.0
CCOC(=O)C1=CC(=C2C(=O)N(CC)C(=S)N(CC)C2=O)c2ccccc2O1 | -12 | 21 | 13 | 21 | 17 | 25 | i | -0.6 | -5 | -1.1
C[Se]C[C@@H](N)C(=O)O | . | -3 | . | -1 | 2 | 1.3 | i | . | 0 | 5.3
Cc1cc(/C=C2\C(=O)NC(=O)N(c3ccc(Cl)cc3)C2=O)c(C)n1-c1sc2c(c1C#N)CCCC2 | -1 | 5 | 9 | 1 | -2 | 3.3 | i | -1.3 | -5 | 2.2
Cc1cc(OCC(=O)NCC(O)c2ccccc2)c2c3c(c(=O)oc2c1)CCC3 (configuration not stated) | 19 | -2 | 11 | -9 | -13 | -2.2 | i | 2.6 | 12 | -2.9
CC1(C)NCCN2C(=O)CSC21 (configuration not stated) | -17 | 3 | 1 | . | . | . | . | 5.8 | -7 | .
CN1C(=O)C(=Cc2ccc(OCCN(C)c3ccccn3)cc2)C(=O)N(C)C1=O | -5 | 13 | 1 | 9 | 11 | 1.4 | i | 11 | -4 | -2.4
O=c1c2ccccc2nc(/C=C/c2ccc(O)c(O)c2)n1-c1ccccc1 | -7 | -10 | -7 | 6 | 11 | -0.4 | i | 4.9 | 12 | -18
Cc1cccc(N2C(=O)NC(=O)C3(Cc4cc(C)ccc4N(C)C3)C2=O)c1 (configuration not stated) | 4 | 2 | 1 | . | . | . | . | 3.6 | 6 | .
CCCCn1c(O)c(C=NCCCN(CC)CC)c(=O)[nH]c1=O | 10 | -13 | -10 | . | . | . | . | 0.4 | 0 | .
CN(C)C(=O)Oc1ccc(C(=O)c2ccccc2)cc1 | 2 | -3 | -23 | -13 | -16 | -0.8 | i | -2.1 | 1 | 3.4
N=Cc1c(O)n(-c2cccc(Cl)c2)c(=O)[nH]c1=O | 3 | -18 | 2 | . | . | . | . | 1.0 | -9 | .
CN1CCN(Cc2cc3c(cc2[N+](=O)[O-])OCO3)CC1 | 7 | . | 0 | -3 | 12 | 1.9 | i | -2.1 | -1 | -3.6
CCOc1cccc(N2C(=O)/C(=C/c3ccco3)C(=O)NC2=S)c1 | -6 | . | -5 | 12 | 15 | 3.3 | i | -0.1 | -4 | -2.4
COC(=O)C1=C(c2cccc(OC)c2OC)C[C@@H]2CC[C@H]1N2C(=O)NCc1ccc(F)cc1 | 4 | 8 | 5 | 7 | 4 | 4.6 | i | 0.0 | -6 | -0.2
Cc1ccc(C)c(-n2c(C)nc3ccccc3c2=O)c1 | -8 | -23 | 1 | -2 | -1 | 0.5 | i | 1.1 | -14 | 1.1
CCN1c2nc3ccccn3c(=O)c2CC2(C(=O)N(C)C(=O)N(C)C2=O)C1C (configuration not stated) | -3 | -5 | 1 | 1 | 2 | -4.9 | . | -3.7 | -1 | .
CCCCCn1c(=O)c(C(=O)Nc2ncccc2C)c(O)c2ccccc21 | 28 | ? | 5 | -46 | -74 | -17 | i | 3.8 | 88* | 1.2
COC(=O)C1=Nc2ccccc2/C1=C\c1c(O)n(-c2ccc(Br)cc2)c(=O)[nH]c1=O | . | . | . | -19 | -9 | 21 | i | . | -3 | -3.9
CCC1(OC(=O)CN)C(=O)OCc2c1cc1n(c2=O)Cc2cc3ccccc3nc2-1 (configuration not stated) | 61* | -5 | 12 | 21 | 13 | -0.3 | . | 3.5 | 92* | .
CC(C)Cc1[nH]c(=O)c(C#N)c2c1CCC2 | -4 | -12 | -10 | 8 | 7 | 1.3 | . | ? | -3 | .
CCCCn1c(C)c(C(=O)OCC)c2c(CN3CCOCC3)c(O)ccc21 | 9 | 32 | -5 | -4 | -8 | 0.0 | i | -4.0 | -16 | 2.1
O=c1[nH]c(=O)n(Cc2ccco2)c(O)c1C=NCc1cccs1 | -16 | -4 | 26 | . | . | . | . | 0.1 | -2 | .
CCC(C)n1c(O)c(C=NC(C)c2ccccc2)c(=O)[nH]c1=S (configuration not stated) | 5 | . | 6 | . | . | . | i | 3.1 | -9 | 0.4

Compound profiles, from the list above. Screens in order: T cruzi inh | ALR inh | Calb FLC | Ecoli rRNA inh | Ecoli rRNA inh OD600 | Ecoli rRNA inh RFP | FGF22 binding | RanGTP-Imp inh | Beta apoptosis | MLL AF4-AF9 inh
Results for `CCC1(OC(=O)CN)C(=O)OCc2c1cc1n(c2=O)Cc2cc3ccccc3nc2-1` (configuration not stated) = 61* | -5 | 12 | 21 | 13 | -0.3 | . | 3.5 | 92* | .
Results for `CCCCCn1c(=O)c(C(=O)Nc2ncccc2C)c(O)c2ccccc21` = 28 | ? | 5 | -46 | -74 | -17 | i | 3.8 | 88* | 1.2
Results for `CCOc1cccc(N2C(=O)/C(=C/c3ccco3)C(=O)NC2=S)c1` = -6 | . | -5 | 12 | 15 | 3.3 | i | -0.1 | -4 | -2.4

Carrying on.
SMILES | T cruzi inh | ALR inh | Calb FLC | Ecoli rRNA inh | Ecoli rRNA inh OD600 | Ecoli rRNA inh RFP | FGF22 binding | RanGTP-Imp inh | Beta apoptosis | MLL AF4-AF9 inh
COC(=O)C1=C(c2ccccc2OCc2ccccc2)C[C@@H]2CC[C@H]1N2C(=O)NCc1cccc(C(F)(F)F)c1 | . | 2 | . | 13 | 11 | -4.1 | i | . | -1 | 1.2
O=c1c2ccc(Cl)cc2[nH]c(=S)n1-c1cccnc1 | 1 | . | 39 | 20 | 22 | 2.1 | i | 0.1 | -12 | -1.4
Cc1cc(OCc2cc(C(=O)O)oc2C)c2c3c(c(=O)oc2c1)CCCC3 | -10 | 7 | -2 | -32 | -51 | -11 | . | -1.2 | -3 | 1.3
O=C1CC(N2CCC(n3c(=O)[nH]c4ccccc43)CC2)C(=O)N1c1ccc(F)cc1 (configuration not stated) | -11 | 3 | -3 | . | . | . | . | -0.5 | 1 | .
C=CCn1c(O)c(C(=O)CCCCCC)c(=O)[nH]c1=O | 9 | 2 | 4 | . | . | . | . | 0.4 | 4 | .
O=C1C(=O)c2ccccc2-c2ccccc21 | 39 | 31 | . | . | . | . | i | -0.4 | 121* | 2.8
C1CC2OC2CC1C1CO1 (configuration not stated) | . | -25 | . | 2 | -4 | -2.4 | i | . | 1 | .
CC(C)c1ccc(-n2c(O)c(/C=N/NC(=O)c3ccncc3)c(=O)[nH]c2=O)cc1 | -9 | 66 | -16 | 7 | 11 | -3.2 | i | -1.1 | 2 | 0.9
O=C(O)CNC1c2ccccc2CSc2ccccc21 (configuration not stated) | 8 | 2 | 6 | 0 | 2 | 1.3 | i | 2.4 | . | -2.6

Assay outcomes (PubChem)

An excerpt; count on the stated rates, not on these rows.
